Source: PubChem
MLL AF4-AF9 inh = blocks AF4 peptide binding to human AF9 | P42568 | AlphaScreen, biotin-AF4 peptide binding to FLAG-AF9 | inhibition, % at 10 µM | 350,000 compounds, 0.47% hits | AID 651704;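 active means every replicate reaching a set inhibition limit, whatever the replicate mean, cut at about 25% in these data; inconclusive means mean inhibition reaches that limit but some replicates miss it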;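 further: 0% = plate neutral control median and 100% = total signal loss; the record names both 10 and 1 µM as test concentration; the first replicate is given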
Target sequence (P42568 whole entry, looked up): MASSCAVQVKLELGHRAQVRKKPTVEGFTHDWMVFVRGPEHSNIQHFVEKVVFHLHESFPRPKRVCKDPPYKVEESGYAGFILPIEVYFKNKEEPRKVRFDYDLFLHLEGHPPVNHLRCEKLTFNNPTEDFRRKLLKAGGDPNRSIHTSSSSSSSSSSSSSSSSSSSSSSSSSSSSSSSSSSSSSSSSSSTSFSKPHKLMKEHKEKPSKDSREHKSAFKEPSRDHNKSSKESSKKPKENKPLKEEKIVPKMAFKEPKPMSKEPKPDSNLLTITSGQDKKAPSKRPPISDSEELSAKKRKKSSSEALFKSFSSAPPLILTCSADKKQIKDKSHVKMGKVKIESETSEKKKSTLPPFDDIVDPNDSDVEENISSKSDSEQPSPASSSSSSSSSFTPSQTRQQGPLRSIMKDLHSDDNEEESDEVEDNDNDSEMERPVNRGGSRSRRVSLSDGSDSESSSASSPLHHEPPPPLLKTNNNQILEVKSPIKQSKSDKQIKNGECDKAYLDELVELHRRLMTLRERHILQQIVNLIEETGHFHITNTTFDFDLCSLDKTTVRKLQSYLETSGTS
* hit, by the source's call; ? = inconclusive. This is a subset (hit frequency here may not be typical).

nr | molecule | MLL AF4-AF9 inh
1 | C[C@@H]1CN([C@@H](C)CO)C(=O)c2cc(NC(=O)Nc3ccc(F)cc3)ccc2O[C@H]1CN(C)S(C)(=O)=O | -15
2 | C[C@@H]1CN([C@H](C)CO)C(=O)Cc2cc(NC(=O)c3ccncc3)ccc2O[C@H]1CN(C)C | 0.2
3 | O=C(Cn1cnc2c(NCc3ccccc3)ncnc21)NCc1ccc2c(c1)OCO2 | -1.4
4 | CC(C)NC(=O)Nc1ccc2c(c1)C(=O)N([C@@H](C)CO)C[C@@H](C)[C@@H](CN(C)S(=O)(=O)c1cccs1)OCCCC[C@@H](C)O2 | 1.1
5 | CO[C@@H]1CN(C)C(=O)c2ccc(NS(=O)(=O)CC(F)(F)F)cc2OC[C@H](C)NC[C@H]1C | -2.2
6 | O=C(NCc1ccc(F)cc1)[C@@H]1[C@@H](CO)[C@@H]2Cn3c(cccc3=O)[C@H]1N2 | -2.2
7 | CC(C)CC#Cc1ccc([C@H]2[C@@H](CO)N3C(=O)CN(C(=O)CN4CCOCC4)C[C@@H]23)cc1 | -1.3
8 | C[C@H](CO)N1C[C@H](C)[C@@H](CN(C)Cc2ccc(C(=O)O)cc2)Oc2c(NC(=O)C3CCCCC3)cccc2C1=O | 0.2
9 | C[C@H](CO)N1C[C@H](C)[C@H](CN(C)S(=O)(=O)c2ccc(F)cc2)OCCCC[C@H](C)Oc2ccc(N(C)C)cc2C1=O | -19
10 | COCCNC(=O)C1(C)Cc2c(-c3cccc(C(F)(F)F)c3)ccnc2O1 (centres undefined) | 0.7
11 | Cc1ccccc1Oc1ccc2c(c1)[C@@H]1C[C@H](N(C)C(=O)Nc3cc(Cl)cc(Cl)c3)[C@H]([C@H](C)O)C(=O)N1CC2 | 0.9
12 | O=C(C[C@@H]1C=C[C@@H](NC(=O)Nc2cc(F)ccc2F)[C@H](CO)O1)NCc1ccncn1 | -0.4
13 | O=C(NN=Cc1ccc2c(c1)OCO2)c1ccc([N+](=O)[O-])cc1 | -3.6
14 | COc1ccc(S(=O)(=O)Nc2ccc3c(c2)C(=O)N([C@@H](C)CO)C[C@@H](C)[C@H](CN(C)CC2CC2)OCCCC[C@H](C)O3)cc1 | -2.0
15 | CCN(C[C@@H]1[C@@H](c2ccccc2)[C@@H](CO)N1C(=O)COC)C(=O)NC(C)C | ?
16 | C[C@@H]1CN([C@H](C)CO)C(=O)c2cc(NS(=O)(=O)c3ccccc3)ccc2O[C@@H]1CN(C)Cc1ccc2c(c1)OCO2 | -1.4
17 | Cc1noc(C)c1S(=O)(=O)Nc1ccc2c(c1)CC(=O)N([C@@H](C)CO)C[C@@H](C)[C@@H](CN(C)C(=O)NC(C)C)O2 | -1.5
18 | CO[C@H]1CN(C)C(=O)c2cc(NC(=O)C3CCOCC3)ccc2OC[C@@H](C)N(Cc2cccnc2)C[C@H]1C | -2.0
19 | CNC[C@@H]1Oc2ccc(NS(=O)(=O)c3cccs3)cc2CC(=O)N([C@H](C)CO)C[C@@H]1C | -2.2
20 | O=C(C[C@@H]1CC[C@H]2[C@@H](COC[C@@H](O)CN2C(=O)Nc2ccc(F)cc2)O1)NC1Cc2ccccc2C1 | -2.8

Structures shown so far with a thiophene ring, fused or not:
nr | molecule | MLL AF4-AF9 inh
4 | CC(C)NC(=O)Nc1ccc2c(c1)C(=O)N([C@@H](C)CO)C[C@@H](C)[C@@H](CN(C)S(=O)(=O)c1cccs1)OCCCC[C@@H](C)O2 | 1.1
19 | CNC[C@@H]1Oc2ccc(NS(=O)(=O)c3cccs3)cc2CC(=O)N([C@H](C)CO)C[C@@H]1C | -2.2

Other results:
nr | molecule | MLL AF4-AF9 inh
21 | C[C@H](CO)N1C[C@H](C)[C@H](CN(C)Cc2ccccc2)Oc2ccc(NC(=O)CCN3CCOCC3)cc2C1=O | -0.2
22 | C[C@@H]1CN([C@H](C)CO)C(=O)Cc2cc(NC(=O)Nc3ccccc3)ccc2O[C@H]1CN(C)S(=O)(=O)c1ccccc1 | -9.6
23 | COC(=O)C[C@H]1CC[C@@H]2[C@H](COc3ccc(NC(=O)c4ccc(F)c(F)c4)cc3C(=O)N2C)O1 | -46
24 | Cc1cc(C)c2nc3sc(=Cc4ccc(-c5ccccc5C(=O)O)o4)c(=O)n3c2c1 | -2.1
25 | Cc1noc(C)c1S(=O)(=O)N(C)C[C@@H]1OCCCC[C@@H](C)Oc2ccc(NC(=O)NC3CCCCC3)cc2C(=O)N([C@H](C)CO)C[C@H]1C | -0.1
26 | COc1ccc(C#Cc2cnc3c(c2)C(=O)N([C@H](C)CO)C[C@H](C)[C@H](CN(C)Cc2ccccc2)O3)cc1OC | 1.6
27 | Cc1ccccc1-c1cnc2c(c1)C(=O)N([C@H](C)CO)C[C@H](C)[C@@H](CN(C)C(=O)CN(C)C)O2 | -1.4
28 | CCC(=O)Nc1ccc2c(c1)OC[C@H](C)N(CC1CC1)C[C@@H](C)[C@@H](OC)CN(C)C2=O | 0.5
29 | O=C(NCc1cc(F)cc(F)c1)[C@H]1[C@H](CO)[C@H]2Cn3c(cccc3=O)[C@@H]1N2C(=O)Cc1ccccn1 | -5.3
30 | O=C(C[C@@H]1CC[C@H]2[C@@H](COC[C@@H](O)CN2Cc2ccc3c(c2)OCO3)O1)N1CCOCC1 | -1.4
31 | Cc1noc(C)c1S(=O)(=O)Nc1ccc2c(c1)C(=O)N([C@@H](C)CO)C[C@H](C)[C@@H](CN(C)S(=O)(=O)c1ccc(Cl)cc1)OCCCC[C@H](C)O2 | 4.5
32 | NC(=O)NCC#Cc1ccc2c(c1)[C@]1(C(=O)N2)[C@H](C(=O)O)[C@H]2C(=O)O[C@H](c3ccccc3)[C@H](c3ccccc3)N2[C@@H]1c1ccc(O)cc1 | -0.4
33 | C[C@@H]1CN([C@H](C)CO)C(=O)c2cc(NC(=O)CCCN(C)C)ccc2O[C@@H](C)CCCCO[C@@H]1CN(C)C(=O)Nc1ccccc1 | 1.6
34 | N#C[C@H]1[C@@H](c2ccc(C#CC3(O)CCCC3)cc2)[C@H](CO)N1C(=O)C1CCC1 | -0.6
35 | O=C(C[C@@H]1CC[C@H]2[C@@H](COC[C@H](O)CN2C(=O)Nc2cc(Cl)cc(Cl)c2)O1)N1CCCCC1 | 0.2
36 | CC(C)(C)c1ccc(CC(=O)N2CCC2(C)C(=O)NCc2cccc3ccccc23)cc1 (centres undefined) | -3.7
37 | COc1ccc(S(=O)(=O)NC(=O)C2(C)CCN2C(=O)Cc2cc(C)cc(C)c2)cc1 (centres undefined) | -0.2
38 | COc1ccccc1N1CCN(CCCCN2C(=O)C3CCCN3C2=O)CC1 (centres undefined) | 2.0
39 | COc1ccccc1-c1ccc2n(c1=O)C[C@H]1[C@H](CO)[C@@H](C(=O)N3CCCCC3)N(C)[C@@H]21 | -0.9
40 | CCC(=O)Nc1ccc2c(c1)C(=O)N(C)C[C@H](OC)[C@H](C)CN(C(=O)NC(C)C)[C@@H](C)CO2 | -1.0
41 | c1cncc(CN2C[C@@H]3N[C@H](C2)C3c2ccc(-c3cccnc3)cc2)c1 (some centres undefined) | -8.8
42 | COc1cc(C#N)c(NC(=S)N2CCN(C(=O)c3ccco3)CC2)cc1OC | 0.8
43 | OC(c1ccc(F)c(F)c1)c1nc(-c2cncnc2)cs1 (centres undefined) | 2.3
44 | O=C(C[C@H]1CC[C@@H]2[C@H](COC[C@H](O)CN2C(=O)Nc2cc(Cl)cc(Cl)c2)O1)N1CCOCC1 | 0.2
45 | C[C@@H]1CCCCO[C@@H](CN(C)C(=O)c2ccccc2)[C@@H](C)CN([C@H](C)CO)C(=O)c2cc(NC(=O)CCCN(C)C)ccc2O1 | 0.1
46 | O=C(CCN1CCCCC1)N[C@H]1CC[C@H](CCNS(=O)(=O)c2ccc(F)cc2)O[C@@H]1CO | 2.3
47 | CN(C)C(=O)C[C@H]1CC[C@H]2[C@@H](COc3ccc(NS(=O)(=O)c4cccc(F)c4)cc3C(=O)N2C)O1 | -0.8
48 | COc1cccc(S(=O)(=O)N[C@@H]2CC[C@H](CC(=O)NC3Cc4ccccc4C3)O[C@H]2CO)c1 | 1.6
49 | O=S1(=O)CC(N2CCN(CC3CC3)CC2)CN1CCc1ccccc1 (centres undefined) | -2.7
50 | O=C(C[C@@H]1C=C[C@@H](NC(=O)c2ccccn2)[C@H](CO)O1)NCc1cc(F)cc(F)c1 | 0.5
51 | CNC[C@H]1OCCCC[C@H](C)Oc2ccc(NC(=O)Nc3ccc4c(c3)OCO4)cc2C(=O)N([C@@H](C)CO)C[C@@H]1C | 19
52 | CCC(C)[C@H](NS(=O)(=O)c1ccc(F)cc1Br)C(=O)OC (some centres undefined) | -0.4
53 | CCOc1ccc2nc(N/C(N)=N/S(=O)(=O)c3ccc(C)cc3)nc(C)c2c1 | -0.8
54 | Cc1ccccc1CN(C)C[C@@H]1OCc2cn(nn2)CCCC(=O)N([C@@H](C)CO)C[C@@H]1C | -1.9
55 | Cc1ccc(CNCCCn2cnc3c(OCc4ccccc4)ncnc32)o1 | 3.7
56 | CCCNC(=O)N(C)C[C@H]1Oc2cc(-c3ccc(C)cc3)ccc2S(=O)(=O)N([C@@H](C)CO)C[C@@H]1C | -0.9
57 | C[C@@H]1CN([C@@H](C)CO)C(=O)c2cc(NC(=O)C3CCCCC3)ccc2O[C@@H](C)CCCCO[C@H]1CN(C)Cc1ccc(Cl)c(Cl)c1 | 1.6
58 | C[C@@H]1CN([C@@H](C)CO)C(=O)c2cc(NS(=O)(=O)c3ccc(F)cc3)ccc2O[C@H]1CN(C)C | -1.2
59 | C[C@@H]1CN([C@@H](C)CO)C(=O)c2cc(NC(=O)C3CC3)ccc2O[C@H]1CN(C)S(=O)(=O)c1ccc(Cl)cc1 | -3.1
60 | Cc1ccc(N2CCN(C(=O)C(=O)c3ccc(F)c(F)c3)CC2)cc1 | 0.5
61 | C(=C\c1ccc(C2[C@H]3CNC[C@@H]2N3Cc2ccccn2)cc1)/c1ccccc1 (some centres undefined) | ?
62 | C[C@@H]1CN([C@@H](C)CO)S(=O)(=O)c2ccc(C#Cc3ccccc3)cc2O[C@H]1CN(C)S(C)(=O)=O | -0.8
63 | COCC(=O)N1CCC2(CC1)CN(C(=O)Nc1ccccc1F)[C@H](CO)c1[nH]c3cc(OC)ccc3c12 | 0.1
64 | C[C@H](CO)N1C[C@H](C)[C@@H](CN(C)C(=O)Nc2ccc3c(c2)OCO3)Oc2ccc(NC(=O)c3ccncc3)cc2C1=O | -2.3
65 | COc1ccc(CN(C)C[C@H]2Oc3ccc(NS(C)(=O)=O)cc3C(=O)N([C@H](C)CO)C[C@@H]2C)cc1 | -2.1
66 | CSc1ccc(CNC(=O)C2(C)CCN2C(C)C)cc1 (centres undefined) | -1.1
67 | Cc1ccc(S(=O)(=O)N(C)C[C@H]2OCCCC[C@@H](C)Oc3ccc(N(C)C)cc3C(=O)N([C@@H](C)CO)C[C@H]2C)cc1 | 18
68 | C(=CCSc1ccccn1)CSc1ccccn1 | -4.2
69 | COCC(=O)N1C[C@H](C)[C@H](OC)CN(C)C(=O)c2ccc(NC(=O)C3CCC3)cc2OC[C@@H]1C | -3.7
70 | CCC(CC)C(=O)N(C)c1c(C)nc2c(OCCOc3ccc(F)cc3)cccn12 | 0.6
71 | CNC(=O)C[C@@H]1CC[C@@H]2[C@H](COC[C@@H](O)CN2C(=O)Nc2ccc3c(c2)OCO3)O1 | 0.1
72 | CCOc1ccc(NC(=O)COC(=O)c2cc(=O)c3ccccc3o2)cc1 | 2.9
73 | COc1ccc(CC(N)c2csc(NC(=O)c3cccc(OC(F)(F)F)c3)n2)cc1 (centres undefined) | 3.9
74 | CCCC#Cc1cnc2c(c1)C(=O)N([C@@H](C)CO)C[C@H](C)[C@@H](CN(C)C(=O)c1ccccc1)O2 | 0.7
75 | C[C@H](CO)N1C[C@H](C)[C@@H](CN(C)S(=O)(=O)c2ccccc2)Oc2c(NC(=O)C3CC3)cccc2C1=O | -6.7
76 | COc1ccc(NC(=O)Nc2ccc3nc([C@@H]4O[C@H](CO)[C@@H](O)[C@H](O)[C@H]4O)[nH]c3c2)cc1OC1CCCC1 | -0.1
77 | CCS(=O)(=O)N[C@@H]1CC[C@@H](CC(=O)NC2Cc3ccccc3C2)O[C@@H]1CO | -14
78 | Cc1ccccc1-c1ccc2c(c1)O[C@H](CN(C)Cc1ccc(C(=O)O)cc1)[C@H](C)CN([C@H](C)CO)S2(=O)=O | -1.7
79 | COc1ccc2c3c([nH]c2c1)[C@@H](CO)N(S(C)(=O)=O)CC31CCN(CC2CC2)CC1 | -0.2
80 | COc1ccc2c3c([nH]c2c1)[C@H](CO)N(C(=O)c1cccnc1)CC31CCN(C(=O)c2cccnc2)CC1 | -8.3

(cont.)
nr | molecule | MLL AF4-AF9 inh
81 | C[C@H](CO)N1C[C@H](C)[C@H](CN(C)C(=O)Nc2ccc(C(F)(F)F)cc2)Oc2ccc(N(C)C)cc2C1=O | 8.2
82 | Cc1nc2ccc(C(=O)NCCc3c[nH]c4ccccc34)cn2c1N(C)C(=O)CCc1ccccc1 | 0.1
83 | Clc1ccc(CSc2nnc(-c3ccccn3)n2Cc2cccs2)cc1Cl | -2.6
84 | NC(Cc1ccc(F)cc1)c1csc(Nc2ccc(C(F)(F)F)cn2)n1 (centres undefined) | 2.5
85 | O=C(C[C@@H]1CC[C@@H]2[C@H](COC[C@H](O)CN2C(=O)c2ccccc2F)O1)NCc1ccc(Cl)cc1 | -1.3
86 | Cc1ccc(S(=O)(=O)N[C@@H]2CC[C@@H](CCNC(=O)c3ccccc3F)O[C@H]2CO)cc1 | -1.5

Five neighbouring entries already listed, for reference:
nr | molecule | MLL AF4-AF9 inh
79 | COc1ccc2c3c([nH]c2c1)[C@@H](CO)N(S(C)(=O)=O)CC31CCN(CC2CC2)CC1 | -0.2
80 | COc1ccc2c3c([nH]c2c1)[C@H](CO)N(C(=O)c1cccnc1)CC31CCN(C(=O)c2cccnc2)CC1 | -8.3
81 | C[C@H](CO)N1C[C@H](C)[C@H](CN(C)C(=O)Nc2ccc(C(F)(F)F)cc2)Oc2ccc(N(C)C)cc2C1=O | 8.2
82 | Cc1nc2ccc(C(=O)NCCc3c[nH]c4ccccc34)cn2c1N(C)C(=O)CCc1ccccc1 | 0.1
83 | Clc1ccc(CSc2nnc(-c3ccccn3)n2Cc2cccs2)cc1Cl | -2.6
